ClpP mod: qHTS Assay for Activators of ClpP | ATP-dependent Clp protease proteolytic subunit (Bacillus subtilis (strain 168)), P80244 | purified B. subtilis ClpP, FRET peptide cleavage, 20 min | Potency, µM (doses to about 57.5 µM), for the others: at the highest dose activity change, negative = active | 1.9% of 340,000 active; active = well fitted falling curve with a large enough effect; inconclusive = small, poorly fitted or top-dose-only effect; inactive = no such curve, though single readings can be large or run the other way; also: potency is read from the fitted curve at half-maximal effect; the source files actives as falling curves though it sought activators and does not explain the sign; nearly all actives have a fitted effect of over 65% in size; many hits overshoot -100%
Target sequence (P80244 whole entry, looked up): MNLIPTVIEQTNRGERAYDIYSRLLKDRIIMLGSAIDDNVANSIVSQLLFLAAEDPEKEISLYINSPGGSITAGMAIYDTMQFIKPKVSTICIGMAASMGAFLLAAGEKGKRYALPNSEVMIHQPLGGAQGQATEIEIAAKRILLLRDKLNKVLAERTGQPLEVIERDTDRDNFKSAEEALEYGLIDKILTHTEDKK
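FRET quenching reversal measured ClpP activation: 10 microg/mL B. subtilis ClpP at pH 8 with the FRET-FV decapeptide, read at 430 nm after 320 nm excitation. The 20-min minus 0-min signal was scaled between DMSO/no-enzyme wells and ADEP (5.8 microM final).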
Sfp PPTase inh: blocks B. subtilis Sfp PPTase activity; Q9F4F7; Biochemical Sfp PPTase activity, qHTS; Potency, µM, without a hit: max response, negative = inhibition, actives largely listed as inhibitors; 3.5% of 310,000 active; AID 1490; active = well fitted inhibition curve with a large enough effect; inconclusive = small, poorly fitted or top-dose-only effect, or another doubt; inactive = no such curve, though single readings can be large or run the other way;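 also: the enzyme is Sfp with the accession as filed and its product quenches rhodamine fluorescence; potency is read from the fitted curve at half-maximal effect; 0% = enzyme reaction without inhibitor and -100% = no enzyme wells; top concentration of the series not given in the record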
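Sfp 15 nM + cpd, 15 min RT; start w/ rhodamine-CoA 5 uM, BHQ-2-YbbR 12.5 uM (final); 50 mM Hepes pH 7.6, 10 mM MgCl2, 0.01% NP-40, 0.01% BSA; read 525/598 nm at 0 and 30 min.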
gsp antagonist: antagonists of gsp mutant (McCune-Albright syndrome); AID 624288; Potency, µM (highest dose often 76.9 µM), inactives show at the top dose activity change, negative = inhibition, hits mostly inhibitors; 0.4% of 340,000 active; gsp-mutant cells, cAMP HTRF, 30 min; control for the full effect not named in the record; active = falling curve of any shape with a large fitted effect; inconclusive = falling curve, mostly with a smaller effect; inactive = flat or rising curve; cell line not stated here;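 also: intracellular cAMP measured with PDE inhibitor Ro 20-1724 present during compound exposure; potency is read from the fitted curve at half-maximal effect; % is scaled to controls: 0 for no effect and ±100 for the full control effect; nearly all actives have a fitted effect of over 65% in size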
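HTRF cAMP read-out (cAMP-d2 plus anti-cAMP antibody-K in lysis buffer, 30 min RT). Before lysis, cells are exposed to compounds with […] for 30 min at 37C in DPBS containing Ca/Mg, BSA and Tween 20.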
D2 ag: human D2 receptor agonism in beta-arrestin assay. P14416. DiscoveRx PathHunter D2 beta-arrestin, luminescence, 90 min; 100% = 57 uM dopamine signal. activation, % (concentration not given with the values). 0.084% of 360,000 active. AID 624465; in the data active = activation above about 40%; inconclusive = about 15% to 40%; inactive = below about 15%; also: compound concentration not given in the record; the text of the record calls up to 30% inactive
Target sequence (P14416 whole entry, looked up): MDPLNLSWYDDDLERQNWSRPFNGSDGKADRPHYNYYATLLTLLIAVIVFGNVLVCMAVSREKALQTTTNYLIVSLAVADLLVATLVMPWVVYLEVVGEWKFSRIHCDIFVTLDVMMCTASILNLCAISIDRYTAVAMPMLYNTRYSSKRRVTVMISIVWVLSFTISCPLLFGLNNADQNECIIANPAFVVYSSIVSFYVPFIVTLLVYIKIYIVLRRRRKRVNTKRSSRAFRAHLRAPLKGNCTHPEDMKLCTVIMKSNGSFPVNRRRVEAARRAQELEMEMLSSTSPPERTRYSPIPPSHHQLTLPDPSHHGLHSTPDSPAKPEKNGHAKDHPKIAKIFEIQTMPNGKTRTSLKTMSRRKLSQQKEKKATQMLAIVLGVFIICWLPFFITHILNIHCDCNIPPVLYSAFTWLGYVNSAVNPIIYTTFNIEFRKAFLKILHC
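Agonist mode: compounds alone added to overnight-plated D2 PathHunter cells for 90 min at 37 C, with 57 uM final dopamine (EC100) defining full response. Beta-arrestin recruitment detected by chemiluminescent reagent, read after 1 h at ambient temperature.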
gsp agonist: gsp mutant agonism; gsp mutant cells, cAMP HTRF, 30 min; control for the full effect not named in the record; Potency, µM (titrated, usually from 76.9 µM), inactives show at the highest dose activation (cAMP increase), usual class: activators; 0.13% of 340,000 active; active = well fitted activation curve with a large enough effect; inconclusive = small, poorly fitted or top-dose-only effect, or another doubt; inactive = no such curve, though single readings can be large or run the other way; cell line not stated here;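 also: phosphodiesterase inhibitor Ro 20-1724 added with compounds to block cAMP breakdown; potency is read from the fitted curve at half-maximal effect; nearly all actives have a fitted effect of over 60% in size; about a fifth of the inactives were tested at one dose only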
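Cells stably selected in G418 were plated at 2000/well, grown 16-24 hr, then given compounds in DMSO with the PDE inhibitor […] (300 uM solution added) for 30 min at 37C; cAMP was read by HTRF.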
Menin-MLL FL inh: displaces fluorescein MLL peptide from human menin | FP activity change, % at 61.4 µM | Fluorescence polarization, fluorescein-MLL peptide displacement from menin | 290,000 tested, under 10 active; inconclusive = falling polarisation curve, or a change in total fluorescence; inactive = total fluorescence flat and polarisation flat or rising; no compound was filed as active; the % refers to the polarisation; negative = inhibition;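 also: % of control where 0% means no effect; inhibitors lower the polarisation; unlabelled MLL peptide was the positive control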
PINK1 modulator: PINK1 expression modulation | PINK1 immunofluorescence, high-content cytometry, 24 h | Potency, µM (titrated, usually from 76.6 µM), inactives show top-dose activation (PINK1 increase), most hits filed as activators | 0.2% of 410,000 active | AID 624263; active = well fitted activation curve with a large enough effect; inconclusive = small, poorly fitted or top-dose-only effect; inactive = flat fitted curve, though single readings scatter; cell line not stated here;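 also: potency is read from the fitted curve at half-maximal effect; % of control where 0% means no effect; nearly all actives have a fitted effect of over 65% in size; a mitochondrial uncoupler was the plate control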
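Decision-based qHTS: stable cells, 24 h exposure to five compound concentrations, CCCP as control. Fixed cells stained for PINK1 plus nuclear, mitochondrial and cell markers, cytometer read.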
* hit, by the source's call; ? = inconclusive; . = no result given; & = joins results of further samples; [ ] = remark or other dose.

SMILES | ClpP mod | Sfp PPTase inh | gsp antagonist | D2 ag | gsp agonist | Menin-MLL FL inh | PINK1 modulator
CCC(C)(C(=O)Nc1ccccc1C)N(C(=O)CNC(C)=O)c1ccc(C)cc1 (centres undefined) | -0.2% | 6.1% | 1.4% | -2.7 | -15.5% | 1.8 | 1.0%
Cc1nn(Cc2n[nH]c(=S)n2Cc2ccccc2)c(C)c1Cl | -0.9% | 1.9% | 5.7% | 2.3 | -42.0%[inhibitor] | 2.5 | -0.6%
CCCCCCn1c(CN2CCN(Cc3ccccc3)CC2)nc2c1c(=O)n(C)c(=O)n2C | -0.2% | -5.3% | 7.4% | -2.3 | 22.9% | 1.7 | 12.4%[38.3 µM]
CC1CC(C)CN(CC(=O)NC(c2ccccc2)c2ccccc2)C1 (centres undefined) | 0.1% | ? | -1.0% | -1.8 | 8.7% | -3.3 | 22.0%
COCCNC(=O)CC(=O)N/N=C/c1ccc(C(=O)OC)cc1 | 91.4% | 3.2% | -7.1% | -5.8 | 5.0%[15.4 µM] | -0.9 | 1.4%
COc1ccccc1CNC(=O)c1ccc(Cl)c(S(=O)(=O)N2CCCC2)c1 | -0.3% | . | -28.4% | -1.1 | -1.8% | . | 0.4%
COc1ccccc1C(=O)NCC(=O)OCC(=O)Nc1cccc(S(=O)(=O)N2CCCCCC2)c1 | . | 13.1% | . | -1.4 | -0.3%[15.4 µM] | -4.2 | 3.5%
COc1ccccc1NC(=O)N(CCN(C)C)Cc1cc2cc(C)ccc2[nH]c1=O | -17.6% | -3.7% | 8.5% | -1.2 | ? | -1.6 | -0.7%
COc1cccc2cc(C(=O)OCC(=O)NC3CCCC(C)C3C)c(=O)oc12 (centres undefined) | . | . | 0.0% | -0.5 | -22.3% | . | 1.7%
Cn1cc(CN2CCC(C(=O)N3CCCC3)CC2)c(-c2ccccc2F)n1 | . | 14.3% | 13.5% | -0.1 | -9.5% | -2.0 | -0.3%
COc1ccc(N(C(=O)c2ccco2)S(=O)(=O)c2cccc([N+](=O)[O-])c2)cc1 | 1.1% | 18.5% | 6.2% | -1.2 | -29.9% | 5.9 | 1.2%[38.3 µM]
O=C1c2ccccc2C(=O)N1CCCCc1cn(C[C@H]2CC[C@@H]([C@@H]3CC[C@H](Cn4cc(CCCCN5C(=O)c6ccccc6C5=O)nn4)O3)O2)nn1 | 2.2% | . | 31.6µM* | 4.4 | . | . | 0.1%
Cn1c(-c2ccccc2)cnc1N | -0.7% | 16.7% | 18.4% | -10.9 | 2.1% | -0.1 | 7.2%
CCOC(=O)N1CCN(Cc2nc3cc(NC(C)=O)ccc3n2CC)CC1 | 1.3% | -0.6% | -22.6% | -4.4 | 27.6% | -2.0 | 0.8%
OCCCN1CCN(CCOc2ccccc2-c2ccccc2)CC1 | 0.3% | 1.1% | 16.8% | -3.0 | -5.9%[15.4 µM] | -1.3 | -0.7%
Cc1cc(C)n2[nH]c(=O)c(N=Nc3cccc(C(F)(F)F)c3)c2n1 | -2.2% | 6.2% | -4.4% | -1.7 | 28.1% | -1.1 | -0.3%
C/C(NC1CCCC1)=C(/C#N)C(N)=O | 1.2% | 16.7% | -3.4% | -0.3 | -1.8% | -1.0 | 1.0%[38.3 µM]
CC1=C(n2nnc3ccccc32)C(c2ccccc2)C(C#N)=C(N)O1 (centres undefined) | -7.8% | 1.6% | 6.3% | 0.8 | 0.6% | 3.2 | -3.3%
CCN1CCN(c2nc(Nc3cc(OC)ccc3OC)nc(Nc3cc(OC)ccc3OC)n2)CC1 | . | -4.8% | -1.3% | -3.5 | 13.8%[15.4 µM] | -1.6 | 4.2%
O=c1ccc2cc([N+](=O)[O-])c(CCO)cc2o1 | -0.7% | 3.9% | 2.3% | -2.5 | 20.7% | 0.5 | -0.1%
CCN(CC)CCCC(C)Nc1nccc2c(Cl)cccc12 (centres undefined) | -0.4% | . | 9.7% | -7.0 | -8.9%[15.4 µM] | . | -1.2%
CCn1c2ccccc2c2cc(/C=N/NC(=O)c3ccncc3)ccc21 | . | -3.2% | . | -0.1 | -2.5%[15.4 µM] | -0.3 | 0.1%
CCCCCCn1cc(C(=O)O)c(=O)c2cc(F)c(N3CCN(C(=O)OCC)CC3)cc21 | . | -11.3% | 3.1% | -0.8 | -12.7% | -14.6 | 3.7%
Cc1ccc(CNC(=O)C2CCN(S(=O)(=O)c3cccc4nonc34)CC2)cc1 | 1.1% | 12.2% | -11.9% | -2.0 | 4.2% | 0.1 | 1.6%&2.5%

Part of the list above in order of number of heavy atoms, smallest number first.
SMILES | ClpP mod | Sfp PPTase inh | gsp antagonist | D2 ag | gsp agonist | Menin-MLL FL inh | PINK1 modulator
O=c1ccc2cc([N+](=O)[O-])c(CCO)cc2o1 | -0.7% | 3.9% | 2.3% | -2.5 | 20.7% | 0.5 | -0.1%
Cc1nn(Cc2n[nH]c(=S)n2Cc2ccccc2)c(C)c1Cl | -0.9% | 1.9% | 5.7% | 2.3 | -42.0%[inhibitor] | 2.5 | -0.6%
CC1=C(n2nnc3ccccc32)C(c2ccccc2)C(C#N)=C(N)O1 (centres undefined) | -7.8% | 1.6% | 6.3% | 0.8 | 0.6% | 3.2 | -3.3%
COc1ccccc1CNC(=O)c1ccc(Cl)c(S(=O)(=O)N2CCCC2)c1 | -0.3% | . | -28.4% | -1.1 | -1.8% | . | 0.4%
CCCCCCn1cc(C(=O)O)c(=O)c2cc(F)c(N3CCN(C(=O)OCC)CC3)cc21 | . | -11.3% | 3.1% | -0.8 | -12.7% | -14.6 | 3.7%
O=C1c2ccccc2C(=O)N1CCCCc1cn(C[C@H]2CC[C@@H]([C@@H]3CC[C@H](Cn4cc(CCCCN5C(=O)c6ccccc6C5=O)nn4)O3)O2)nn1 | 2.2% | . | 31.6µM* | 4.4 | . | . | 0.1%

The list continues.
SMILES | ClpP mod | Sfp PPTase inh | gsp antagonist | D2 ag | gsp agonist | Menin-MLL FL inh | PINK1 modulator
Cn1cc(C(=O)C(=O)NC2CC2)c2ccccc21 | . | . | -0.2% | -3.7 | -3.5%[15.4 µM] | . | 0.6%
COc1ccc2[nH]cc(CCNc3cc(-c4ccccc4C)ncn3)c2c1 | . | -24.9% | . | . | . | 13.9 | 0.6%
O=C(Cc1cccc2ccccc12)NCCOc1ccccc1F | -3.2% | -0.8% | 0.0% | -3.0 | -5.2%[15.4 µM] | -0.9 | -0.6%
Cc1cccc2cc(C#N)c(SCC(=O)NNC(=O)Cc3ccccc3)nc12 | -2.4% | -22.7% | 11.9% | -1.0 | ? | 2.4 | 10.8%[38.3 µM]
CNC(=O)c1[nH]cnc1C(=O)N[C@@H](Cc1ccccc1)C(=O)OC(C)(C)C | 1.1% | 17.6% | 13.8% | -0.1 | 1.4% | -12.0 | 1.7%
CC(C)CC(=O)CN1C(=O)C2(OCCO2)c2ccccc21 | 1.5% | 7.8% | 10.2% | -4.2 | 4.2% | 0.3 | 3.0%
CCn1ncc(/C=N/O)c1C | -3.8% | 15.3% | 11.6% | -2.1 | 22.9% | 6.7 | 0.5%
O=C(CN1C(=O)NC2(CCCCCC2)C1=O)NCc1ccccc1 | -0.2% | . | 14.6% | 1.4 | -10.2% | . | -0.3%
CC(Sc1nnc(-c2ccc(O)cc2)o1)C(=O)Nc1cccc2ccccc12 (centres undefined) | 1.2% | -11.7% | -17.0% | 2.0 | -2.7% | 1.2 | -1.4%
Cn1c(NCC(O)CO)nc2c1c(=O)n(Cc1ccc(Cl)c(Cl)c1)c(=O)n2C (centres undefined) | -0.6% | 3.0% | 3.5% | 6.6 | 2.0% | 1.4 | -3.3%
CCn1c(SCC(=O)N2CCCC(C)C2)nnc1-c1ccco1 (centres undefined) | . | 10.5% | 5.5% | -1.4 | 1.5%[15.4 µM] | 2.2 | 0.4%
O=C(N/N=C\c1c(O)ccc2ccccc12)c1cncc(Br)c1 | . | 10.6% | -15.4% | -1.7 | -4.4% | ? | 6.3%
CCOc1nc(-c2ccccc2)c2cc(Br)ccc2n1 | . | 1.4% | -4.9% | 0.6 | ? | -2.3 | 0.2%
O=C(CN1CCCN(Cc2ccc(F)cc2Cl)C1=O)NC1CCCC1 | . | 17.1% | 2.9% | 0.3 | 1.3% | -4.7 | 0.4%
CCOCCn1c(CC)nc2ccccc21 | . | 4.0% | -1.1% | -3.6 | -4.6%[15.4 µM] | -0.4 | 0.2%
O=C(CNCC(=O)Nc1ccc(F)c(F)c1F)Nc1ccc(F)c(F)c1F | 0.7% | -9.1% | -0.4% | -9.6 | -30.2%[inhibitor] | 8.7 | 0.2%
COCCn1c(SCC(=O)Nc2ccccc2C)nc2c(oc3ccccc32)c1=O | 7.6% | -5.2% | 10.6% | -0.9 | 12.2% | -0.5 | 1.0%
COc1ccc(CNC(=O)CCS(=O)(=O)c2ccc(Br)cc2)cc1 | 1.3% | 5.8% | 9.6% | -2.7 | 16.1% | -2.9 | -1.5%
FC(F)(F)c1nnc2c3ccccc3c(Cl)nn12 | -3.0% | 10.4% | 5.1% | -4.3 | ? | -5.1 | 10.2%
Cc1cc(S(=O)(=O)Nc2ccccc2C)ccc1F | -1.2% | 4.6% | -5.5% | 0.1 | -33.7%[inhibitor] | 0.7 | -1.0%
COC(=O)NCC(C)OC(=O)Nc1ccc(Cl)cc1 (centres undefined) | . | 12.7% | 1.8% | -1.6 | -11.5% | -1.2 | 2.0%
COc1ccc(Cl)cc1-c1cc(C(=O)NCc2cccs2)[nH]n1 | -5.5% | . | . | -2.0 | . | . | 2.0%
C=CCn1c(SC(C)C#N)nc2sc(CC)cc2c1=O (centres undefined) | -0.4% | -18.5% | 8.8% | -0.7 | ? | -5.0 | 0.4%
COc1ccc(NC(=O)Cn2cnc3sc(C)c(S(=O)(=O)N4CCN(C)CC4)c3c2=O)cc1OC | -0.1% | 20.3% | 8.1% | -4.1 | -16.3%[15.4 µM] | -2.7 | 0.5%&1.4%
